# Six1-Eya2 inh: qHTS Assay for Inhibitors of the Six1/Eya2 Interaction; Homeobox protein SIX1 (Homo sapiens) + Protein phosphatase EYA2 (Homo sapiens), …; AlphaScreen GST-Six1/His-Eya2 binding, biochemical; hits give low values; control for the full effect not named in the record; activity change, % (concentration not given with the values); hit rate 0.56% among 360,000; in the data active = activity change below about -65%; inconclusive = about -30% to -65%; inactive = above about -30%; note: % is set by controls: 0 for no effect and ±100 for the full control effect
#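 Compounds are tested against tagged Six1 and Eya2 proteins bridged by glutathione donor and nickel acceptor beads; after a one-hour incubation at 37 °C without light, AlphaScreen emission is recorded.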
# PINK1 expr mod: A Quantitative High throughput Screen to Identify Chemical Modulators of PINK1 Expression; PINK1 immunofluorescence, high-content cytometry, 24 h; Potency, µM (highest dose often 76.6 µM), for the others: at the highest dose activation (PINK1 increase), usual class: activators; hit rate 0.2% among 410,000; AID 624263, 2012; active = well fitted activation curve with a large enough effect; inconclusive = small, poorly fitted or top-dose-only effect; inactive = flat fitted curve, though single readings scatter; cell line not stated here;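 note: potency is the fitted concentration of half-maximal effect; % of control where 0% means no effect; nearly all actives have a fitted effect of over 65% in size; a mitochondrial uncoupler was the plate control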
#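 Stable cell line treated 24 h with compounds at 5 concentrations (CCCP controls), then fixed and immunostained for PINK1 plus nuclear and cell stains; PINK1 immunofluorescence quantified by laser-scanning microplate cytometry.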
# TRPML1 blocker: qHTS for Inhibitors of the Human Mucolipin Transient Receptor Potential 1 (TRPML1); Mucolipin-1 (Homo sapiens), Q9GZU1; AID 624415, 2012; hit rate 0.02% among 390,000; activity change, negative = inhibition, % (concentration not given with the values); TRPML1-inducible cells, Ca2+ dye fluorescence, FDSS; hits give low values; inhibition of EC80 agonist-evoked calcium signal; in the data active means activity change below about -50%; inconclusive means about -30% to -50%; inactive means above about -30%;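 note: stimulus is agonist 54-4 at its EC80 concentration; % is set by controls: 0 for no effect and ±100 for the full control effect; compound concentration not given in the record; the text of the record puts the active cut at -80%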
# Target sequence (Q9GZU1 whole entry, looked up): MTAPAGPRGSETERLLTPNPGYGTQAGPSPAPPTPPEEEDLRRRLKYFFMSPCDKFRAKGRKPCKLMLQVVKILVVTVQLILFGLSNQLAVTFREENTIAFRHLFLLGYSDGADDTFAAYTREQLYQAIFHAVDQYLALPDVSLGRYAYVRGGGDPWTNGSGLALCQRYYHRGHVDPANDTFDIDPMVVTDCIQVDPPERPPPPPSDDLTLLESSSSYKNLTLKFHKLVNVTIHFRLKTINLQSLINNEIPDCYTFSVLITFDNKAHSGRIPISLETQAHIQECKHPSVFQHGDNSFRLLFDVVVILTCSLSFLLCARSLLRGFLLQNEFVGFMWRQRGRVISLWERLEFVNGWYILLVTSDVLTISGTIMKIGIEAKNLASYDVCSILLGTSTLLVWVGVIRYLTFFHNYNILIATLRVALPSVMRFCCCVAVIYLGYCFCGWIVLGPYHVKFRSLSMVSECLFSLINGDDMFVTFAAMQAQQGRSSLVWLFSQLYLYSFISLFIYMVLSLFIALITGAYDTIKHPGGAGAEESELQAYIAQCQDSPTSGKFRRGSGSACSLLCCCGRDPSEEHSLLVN
#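 Calcium fluorescence in TRPML1-DL cells induced overnight with Tet: a 110 s read after compound pin addition, then a 110 s antagonist read after challenge with 54-4 at 4 uM final (EC80).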
# TRPML1 ag: qHTS for Agonists of the Human Mucolipin Transient Receptor Potential 1 (TRPML1) | AID 624414, 2012 | hit rate 0.12% among 410,000 | activation, % (test concentration not listed) | Mucolipin-1 (Homo sapiens), Q9GZU1 | TRPML1-expressing cells, Ca2+ dye fluorescence, FDSS; host cell line not named in the record; reference of the full effect not given here; in the data active = activation above about 50%; inconclusive = about 30% to 50%; inactive = below about 30%; note: 0% is about no effect; the text of the record puts the active cut at 80%
#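 Tetracycline-induced TRPML1-DL cells are seeded and incubated overnight before loading with a no-wash Ca2+ dye and quencher. Agonist activity is taken from the 110 s fluorescence read following compound pin-transfer on an FDSS, before EC80 54-4 challenge.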
# D2 PAM: Beta-Arrestin HTS for Positive Allosteric Modulators of the Human D2 Dopamine Receptor: Potentiators; hit rate 0.23% among 360,000; DiscoveRx D2 beta-arrestin cells, luminescence, 90 min; 100% = 57 uM dopamine signal; AID 624464, 2012; potentiation, % (no concentration beside the values); active = potentiation of 50% or more; inconclusive = 30% to 50%; inactive = 30% or less;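 note: compound concentration not given in the record; tested on top of an EC20 dose of dopamine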
# Target sequence (P14416 whole entry, looked up): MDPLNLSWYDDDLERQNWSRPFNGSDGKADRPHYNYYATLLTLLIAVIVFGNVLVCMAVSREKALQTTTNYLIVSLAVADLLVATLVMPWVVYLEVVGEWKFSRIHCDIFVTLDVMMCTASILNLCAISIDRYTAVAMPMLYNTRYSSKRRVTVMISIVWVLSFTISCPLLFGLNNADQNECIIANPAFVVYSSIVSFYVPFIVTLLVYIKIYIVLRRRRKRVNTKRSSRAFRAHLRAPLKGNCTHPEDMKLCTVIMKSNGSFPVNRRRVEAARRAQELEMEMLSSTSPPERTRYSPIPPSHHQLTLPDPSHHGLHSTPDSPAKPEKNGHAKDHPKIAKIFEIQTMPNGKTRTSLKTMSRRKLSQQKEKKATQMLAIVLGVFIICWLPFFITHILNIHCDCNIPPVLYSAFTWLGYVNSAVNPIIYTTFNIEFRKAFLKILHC
#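 D2 cells co-treated with compound plus 50 nM dopamine (EC20) for 90 min at 37 deg C to detect potentiation. Beta-arrestin recruitment was read as enzyme-fragment luminescence after 1 h at ambient temperature. Full response was set by 57 uM dopamine.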
# D2 ag: Beta-Arrestin HTS for Positive Allosteric Modulators of the Human D2 Dopamine Receptor: Agonists; D(2) dopamine receptor (Homo sapiens), P14416; DiscoveRx PathHunter D2 beta-arrestin, luminescence, 90 min; 100% = 57 uM dopamine signal; activation, % (concentration not given with the values); hit rate 0.084% among 360,000; in the data active = activation above about 40%; inconclusive = about 15% to 40%; inactive = below about 15%; note: compound concentration not given in the record; the text of the record calls up to 30% inactive
#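 DiscoveRx PathHunter D2 beta-arrestin cells (2,100/well) attached overnight, then compound-stimulated 90 min at 37 C in HBSS/10 mM HEPES/0.1% Tween-20 buffer; beta-galactosidase complementation read by luminescence after 1 h at ambient temperature. Dopamine 57 uM final (EC100) as control.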
# The depositor's hits bear a star; ? = inconclusive; · = not tested or not shown; [ ] = dose if it differs, or a comment.
SMILES,Six1-Eya2 inh,PINK1 expr mod,TRPML1 blocker,TRPML1 ag,D2 PAM,D2 ag
Cc1ccc(S(=O)(=O)N2CCCc3cc(NS(=O)(=O)c4ccc(C)c(C)c4)ccc32)cc1,·,0.4%,39,-0.7,·,·
COc1ccc(C(=O)Oc2cccnc2)cc1OC,8,-1.8%,-4,-0.4,3,-0.9
CCN1CCN(C(c2ccc(SC)cc2)c2c(O)cc(C)n(Cc3ccco3)c2=O)CC1 (stereo unspecified),·,-0.5%,18,1.9,·,·
O=C(NC1CCCCC1)C(c1cccnc1)N(C(=O)CCl)c1ccccc1Cl (stereo unspecified),-14,-3.7%,6,-0.2,-9,-4.0
O=C(C1=C[C@@H](c2csc3ccccc23)C[C@@H](OCCCCO)O1)N1CCN(Cc2ccc3c(c2)OCO3)CC1,-19,-0.9%,-4,0.1,-15,-1.4
CC(C)c1ccc([C@@H]2O[C@H](C)CC3=C2C(=O)OC(C)(C)O3)cc1,2,0.2%,·,-0.8,·,·
Cc1cc(C)n(-c2ccc(C(=O)O)cc2[N+](=O)[O-])n1,6,2.1%,6,0.3,-5,3.0
C/C(=N\NC(=O)CNc1cccc(C(F)(F)F)c1)c1ccc(Br)cc1,-14,2.2%,-16,-0.6,-27,-4.6
Cc1cccc(NC(=S)NC2CCCC2)c1C,2,-1.1%,-2,1.3,-5,-6.3
COC(=O)CN1C(=O)C(O)(CC(=O)c2ccc(F)cc2)c2ccccc21 (stereo unspecified),·,1.7%,3,-0.6,·,·
Cc1ccc(S(=O)(=O)Nc2ccc3c(c2)CCCN3C(=O)c2cccs2)cc1C,·,1.5%,41,-0.7,·,·
CN(C(=O)c1ccc(NC(=O)Cc2ccc(NC(=O)C3CCCN(C(=O)C4CCCC4)C3)cc2)cc1)C1CC1 (stereo unspecified),-4,1.7%,-10,-0.4,-13,3.6
CCN(CC(=O)Nc1ccc(Br)c(C)c1)CC(=O)NC(C)C,-5,-0.8%,3,-1.2,-3,-2.7
O=C1C(=Cc2cccc(O)c2O)SC(=S)N1CCCN1CCOCC1,-21,0.4%,1,0.1,-14,-2.8
Cc1ccc2occ(CC(=O)Nc3ccc(Cl)c(C(F)(F)F)c3)c2c1,·,?,15,3.2,·,·
O=C(c1ccc(F)cc1F)N1CCN(c2ncccn2)CC1,4,0.0%,0,-0.1,-9,-2.9
COc1ccccc1CN1C(=NC(=O)CCC2CCCC2)SC2CS(=O)(=O)CC21 (stereo unspecified),6,6.9%,6,-0.2,11,-3.7
CC(C)(C)Cc1nnc(NC(=O)CSc2ccccc2)s1,0,4.5%,6,0.2,-1,1.8
C=CCn1c(SCC(=O)N2CCCCCC2)nc2ccccc2c1=O,0,-1.3%,2,1.5,3,?
CN(Cc1ccccc1)C(=O)Cn1c(=O)c2cccn2c2cccnc21,2,1.0%,15,0.9,-4,-3.4
C[C@@H]1C=C(C(=O)O)O[C@H](OCc2ccc(CO)cc2)C1,-3,0.9%,18,-0.8,-5,-0.5
C=CCOC(=O)C1=C(C)NC(=S)NC1c1cccs1 (stereo unspecified),-2,-0.7%,27,5.7,-3,-3.6
CCn1c(CNC(=O)Cc2ccc(OC)cc2)nnc1SCC(=O)NC1CCCCC1,6,0.8%,-17,0.5,5,-3.3
CC(=O)N1c2ccc(S(=O)(=O)N3CCCC3)cc2CC1C(=O)NCc1cccc(F)c1 (stereo unspecified),4,-0.8%,-11,-0.6,4,-5.5
O=C(CCCc1ccccc1)NCCN1CCOCC1,9,1.9%,-21,0.2,-12,1.4
Cc1c(Cl)cccc1NC(=O)CCS(=O)(=O)c1ccc(Br)s1,·,8.7%,-18,0.5,·,·
CNC(=S)NNC(=O)Cc1ccc(OC)cc1,-6,-2.1%,23,-0.1,-9,0.6
Cc1ccc(NC(=O)c2noc(C(C)C)c2[N+](=O)[O-])cc1,3,1.2%,41,-0.3,-11,8.6
CN(c1ccc(OCC(=O)OCC(=O)Nc2ccc(OC(F)F)cc2)cc1)S(=O)(=O)c1cccs1,-2,2.3%,2,-1.0,7,-2.9
COCCNC(=O)CCCn1c(SCC(=O)NCc2ccc(C)cc2)nc2c(sc3ccccc32)c1=O,·,3.9%,-8,0.2,·,·
Cc1cnc(NC(=O)CSc2nnc(COc3c(C)cccc3C)o2)s1,-8,4.5%,-1,0.5,-1,-1.4
O=S(=O)(NCc1csc(-c2cccnc2)n1)c1ccc2c(c1)OCCO2,0,0.0%,1,-0.2,-7,-3.5
O=C(Nc1cccc(-c2csc(Nc3cccc(C(F)(F)F)c3)n2)c1)c1cc([N+](=O)[O-])cc(C(F)(F)F)c1,0,1.2%,-8,0.9,4,-0.4
CC1CCCCN1C(=O)CNCC1CCCO1 (stereo unspecified),4,0.9%,25,0.1,9,0.1
CNC(=O)COc1ccc2oc3c(c2c1)CCCC3,-2,1.5%,-8,0.2,-2,-1.6
COP1(=O)C[C@@H](O)[C@@H](O)[C@@H](COCc2ccccc2)O1 (stereo partly specified),8,0.1%,3,0.0,-3,1.0
Cc1ccc(CNS(=O)(=O)c2cc(C(=O)Nc3ccc(C(C)C)cc3)ccc2F)cc1,·,2.7%,-29,2.8,·,·
Cc1cc(C)n(C(=O)c2ccc([N+](=O)[O-])cc2Cl)n1,-13,3.5%,5,0.6,11,3.7
CCn1c2ccc(C)cc2c2nnc(SCCN3CCCCC3)nc21,-7,-0.9%,4,-1.1,-19,-4.7
COc1ccc(Cc2c(-c3ccc(C#N)cc3)nc3c(Cl)cc(C(F)(F)F)cn23)c(C)c1,-9,1.8%,·,0.8,·,·
CCN1C(=O)/C(=C\c2ccc(-c3ccc([N+](=O)[O-])cc3OC)o2)SC1=Nc1cccc(C(=O)O)c1,-5,0.0%,6,3.6,-1,13
CC1CCN(CC(=O)Nc2cccc(C(=O)Nc3cccc(C(F)(F)F)c3)c2)CC1,-5,9.6%,22,0.7,-10,8.1
COc1cccc(N2CC(C(=O)Nc3nnc(SCC(=O)Nc4ccc(NC(C)=O)cc4)s3)CC2=O)c1 (stereo unspecified),-28,1.0%,9,0.0,12,-1.3
COc1ccc(/C=C/C(=O)OCC(=O)NCCC2=CCCCC2)cc1OC,-1,-0.2%,-3,2.9,-5,6.9
Nc1c(N(CCC2=CCCCC2)C(=O)CCCOc2ccccc2)c(=O)[nH]c(=O)n1Cc1ccccc1,3,3.8%,8,1.3,5,1.9
C/C(=C\c1ccccc1)C(=O)N1CCN(c2cccc(C(F)(F)F)c2)CC1,-2,3.3%,23,3.7,8,-2.3
Cn1c(CC(=O)Nc2ccccc2F)nnc1SCC(=O)Nc1ccccc1Br,12,-0.7%,-6,-0.2,1,-0.6
O=C(NNS(=O)(=O)c1ccc(Cl)cc1)c1cc(-c2ccccc2)n[nH]1,4,7.1%,-2,2.3,-2,7.2
O=C(NCC(=O)N1CCCCC1)c1sc2ccccc2c1Cl,-1,2.0%,-4,0.0,-1,-2.2
Cc1cc([N+](=O)[O-])ccc1NC(=O)CSc1nnc(C)n1C,2,-1.4%,10,0.2,-2,-2.4
COC(=O)CCC(=O)Nc1ccc(NC(=O)CCC(=O)OC)cc1,29,1.2%,-11,0.1,-10,-3.0
COc1ccc(OC)c(NC(=O)c2cc(-c3cc(Cl)ccc3O)n[nH]2)c1,7,?,18,2.4,-9,-5.3
O=C(Nc1ncn[nH]1)c1ccc(Cl)c(Cl)c1,0,0.4%,-9,1.3,-12,-4.4
Oc1ccccc1CN1CCN(C(c2ccccc2)c2ccccc2)CC1,11,9.0%,-22,84*,-66,-4.4
COc1cc(/C=C2/CCCC(C(=O)C(F)(F)F)=C2O)ccc1O,4,0.2%,0,2.2,-5,-7.4
COc1cccc(N2CCN(C(=O)c3ccc(Cl)c(NC4=NC5CS(=O)(=O)CC5S4)c3)CC2)c1 (stereo unspecified),-1,0.0%,-4,-0.6,19,-6.5
O=C(Cc1ccccc1Cl)Nc1cccnc1,2,4.6%,8,-0.7,-4,8.3
Cc1ccccc1N(CC(=O)NCc1ccccc1)C(=O)CCC(=O)Nc1nccs1,6,-3.3%,-7,-0.9,0,-1.1
CC(=O)c1c(C)n(C)c2ccc(O)cc12,-5,-1.5%,36,-0.4,-2,-1.0
CC1Cc2ccccc2N1CC(=O)N(C)c1c(N)n(Cc2ccccc2)c(=O)[nH]c1=O (stereo unspecified),-2,0.6%,7,-0.4,-3,6.9

# Brought forward from above: 3 entries; new compounds follow.
SMILES,Six1-Eya2 inh,PINK1 expr mod,TRPML1 blocker,TRPML1 ag,D2 PAM,D2 ag
Cc1ccccc1N(CC(=O)NCc1ccccc1)C(=O)CCC(=O)Nc1nccs1,6,-3.3%,-7,-0.9,0,-1.1
CC(=O)c1c(C)n(C)c2ccc(O)cc12,-5,-1.5%,36,-0.4,-2,-1.0
CC1Cc2ccccc2N1CC(=O)N(C)c1c(N)n(Cc2ccccc2)c(=O)[nH]c1=O (stereo unspecified),-2,0.6%,7,-0.4,-3,6.9
Cc1nonc1NC(=O)OCCN1CCOC1=O,8,-0.1%[38.3 µM],6,0.5,-5,0.3
CC(CC(=O)N1CCN(C(=O)c2ccccc2)CC1)c1ccccc1 (stereo unspecified),-19,1.3%,-7,-1.2,-1,1.2
NC(=O)C1CCN(C(=O)CSc2ccsc2[N+](=O)[O-])CC1,1,3.7%,11,-0.4,-11,-4.3
CCOC(=O)c1c(NC(=S)NC(C)=O)sc(C)c1C,-10,0.9%,-6,0.6,-14,-2.1
CCCNC(=O)N1CCCC(C(N)=O)C1 (stereo unspecified),7,1.6%,4,1.4,6,0.6
COCCNC(=O)c1c(NC(=O)c2cc(=O)c3cc(C)cc(C)c3o2)sc2c1CCCC2,·,2.1%,1,1.5,·,·
CCOCCCNC(=O)c1cc(C)nn1-c1ccccc1,4,-0.3%,26,-0.3,-5,-6.1
C=CCN1C(=O)c2ccc(C(=O)N(CC)CC(=O)Nc3c(F)cccc3F)cc2C1=O,-5,-0.2%,21,-0.7,3,-5.0
CC(CNC(=O)c1ccccc1Cl)c1ccccc1 (stereo unspecified),-1,0.1%,12,1.8,0,-0.6
CSCCC(NC(=O)c1ccccc1Br)C(=O)NCc1ccc(F)cc1 (stereo unspecified),0,-0.6%,3,-1.1,1,0.6

# Compound profiles (already shown). Order of values: Six1-Eya2 inh, PINK1 expr mod, TRPML1 blocker, TRPML1 ag, D2 PAM, D2 ag
# CC(=O)c1c(C)n(C)c2ccc(O)cc12 in the list: -5, -1.5%, 36, -0.4, -2, -1.0
# COC(=O)CCC(=O)Nc1ccc(NC(=O)CCC(=O)OC)cc1 in the list: 29, 1.2%, -11, 0.1, -10, -3.0
# Cn1c(CC(=O)Nc2ccccc2F)nnc1SCC(=O)Nc1ccccc1Br in the list: 12, -0.7%, -6, -0.2, 1, -0.6
